ClpP mod: qHTS Assay for Activators of ClpP. ATP-dependent Clp protease proteolytic subunit (Bacillus subtilis (strain 168)), P80244. purified B. subtilis ClpP, FRET peptide cleavage, 20 min. Potency, µM (series often up to 57.5 µM), without a hit: top-dose activity change, negative = active. 340,000 compounds, 1.9% hits. AID 651965, 2013; active = well fitted falling curve with a large enough effect; inconclusive = small, poorly fitted or top-dose-only effect; inactive = no such curve, though single readings can be large or run the other way; further: potency means the concentration at half of the fitted maximal effect; the source files actives as falling curves though it sought activators and does not explain the sign; nearly all actives have a fitted effect of over 65% in size; many hits overshoot -100%
Target sequence (P80244 whole entry, looked up): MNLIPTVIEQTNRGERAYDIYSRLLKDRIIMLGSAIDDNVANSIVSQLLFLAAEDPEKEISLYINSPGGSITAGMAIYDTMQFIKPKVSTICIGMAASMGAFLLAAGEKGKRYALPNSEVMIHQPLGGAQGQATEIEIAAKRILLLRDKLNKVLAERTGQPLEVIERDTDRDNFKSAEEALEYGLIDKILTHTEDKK
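Buffer: 100 mM Tris/HCl pH8, 100 mM KCl, 0.05% low protease BSA, 2.5% glycerol, 0.01% Tween-20. ClpP 10 microg/mL final; 20 min RT; delta FRET normalized to ADEP and DMSO controls.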
D2 ag: Beta-Arrestin HTS for Positive Allosteric Modulators of the Human D2 Dopamine Receptor: Agonists; DiscoveRx PathHunter D2 beta-arrestin, luminescence, 90 min; 100% = 57 uM dopamine signal; activation, % (no concentration beside the values); 360,000 compounds, 0.084% hits; in the data active = activation above about 40%; inconclusive = about 15% to 40%; inactive = below about 15%; further: compound concentration not given in the record; the text of the record calls up to 30% inactive
Target sequence (P14416 whole entry, looked up): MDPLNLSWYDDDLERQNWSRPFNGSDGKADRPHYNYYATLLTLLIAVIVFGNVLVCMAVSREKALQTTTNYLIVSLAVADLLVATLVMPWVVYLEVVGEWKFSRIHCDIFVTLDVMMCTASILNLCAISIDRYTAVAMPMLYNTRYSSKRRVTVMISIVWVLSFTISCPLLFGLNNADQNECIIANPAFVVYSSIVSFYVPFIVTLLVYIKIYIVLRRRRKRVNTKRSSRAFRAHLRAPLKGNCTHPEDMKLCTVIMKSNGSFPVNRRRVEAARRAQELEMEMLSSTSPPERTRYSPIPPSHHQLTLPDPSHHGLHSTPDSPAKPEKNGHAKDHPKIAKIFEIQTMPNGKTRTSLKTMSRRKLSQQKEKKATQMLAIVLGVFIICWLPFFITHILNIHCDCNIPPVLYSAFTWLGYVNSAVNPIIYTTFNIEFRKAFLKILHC
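Agonist mode: compounds alone added to overnight-plated D2 PathHunter cells for 90 min at 37 C, with 57 uM final dopamine (EC100) defining full response. Beta-arrestin recruitment detected by chemiluminescent reagent, read after 1 h at ambient temperature.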
Menin-MLL FL inh: qHTS Assay for Inhibitors Targeting the Menin-MLL Interaction in MLL Related Leukemias: Competition With Fluorescein Labeled MLL-derived Peptide. Fluorescence polarization, fluorescein-MLL peptide displacement from menin. FP activity change, % at 61.4 µM. 290,000 tested, under 10 active; inconclusive = falling polarisation curve, or a change in total fluorescence; inactive = total fluorescence flat and polarisation flat or rising; no compound was filed as active; the % refers to the polarisation; negative = inhibition;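 further: % of control where 0% means no effect; inhibitors lower the polarisation; unlabelled MLL peptide was the positive control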
PINK1 modulator: A Quantitative High throughput Screen to Identify Chemical Modulators of PINK1 Expression | PINK1 immunofluorescence, high-content cytometry, 24 h | 410,000 compounds, 0.2% hits | Potency, µM (doses to about 76.6 µM), inactives show at the highest dose activation (PINK1 increase), hits mostly activators; active = well fitted activation curve with a large enough effect; inconclusive = small, poorly fitted or top-dose-only effect; inactive = flat fitted curve, though single readings scatter; cell line not stated here;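 further: potency means the concentration at half of the fitted maximal effect; % of control where 0% means no effect; nearly all actives have a fitted effect of over 65% in size; a mitochondrial uncoupler was the plate control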
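Stable cell line, 250 cells/well, 12 h attachment; compounds pinned at 5 concentrations, 24 h; CCCP control. Fixed with nuclear dye, primary antibodies 12 h at 10 degrees C, secondary plus cell stain; laser-scanning cytometer read.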
gsp ag: qHTS for Agonist of gsp, the Etiologic Mutation Responsible for Fibrous Dysplasia/McCune-Albright Syndrome: qHTS. gsp mutant cells, cAMP HTRF, 30 min; control for the full effect not named in the record. Potency, µM (titrated, usually from 76.9 µM), for inactives: at the top dose activation (cAMP increase), hits mostly activators. 340,000 compounds, 0.13% hits. AID 624287, 2012; active = well fitted activation curve with a large enough effect; inconclusive = small, poorly fitted or top-dose-only effect, or another doubt; inactive = no such curve, though single readings can be large or run the other way; cell line not stated here;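 further: phosphodiesterase inhibitor Ro 20-1724 added with compounds to block cAMP breakdown; potency means the concentration at half of the fitted maximal effect; nearly all actives have a fitted effect of over 60% in size; about a fifth of the inactives were tested at one dose only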
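Cells stably selected in G418 were plated at 2000/well, grown 16-24 hr, then given compounds in DMSO with the PDE inhibitor […] (300 uM solution added) for 30 min at 37C; cAMP was read by HTRF.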
gsp antag: qHTS for Antagonists of gsp, the Etiologic Mutation Responsible for Fibrous Dysplasia/McCune-Albright Syndrome: qHTS; 340,000 compounds, 0.4% hits; Potency, µM (top dose mostly 76.9 µM), for inactives: top-dose activity change, negative = inhibition, usual class: inhibitors; gsp-mutant cells, cAMP HTRF, 30 min; control for the full effect not named in the record; active = falling curve of any shape with a large fitted effect; inconclusive = falling curve, mostly with a smaller effect; inactive = flat or rising curve; cell line not stated here;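 further: intracellular cAMP measured with PDE inhibitor Ro 20-1724 present during compound exposure; potency means the concentration at half of the fitted maximal effect; on the % scale 0 is the no-effect control and ±100 the full control effect; nearly all actives have a fitted effect of over 65% in size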
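HTRF cAMP measurement after 30 min RT detection following 30 min, 37C compound treatment alongside […] (added as 300 uM solution) in G418-selected cells seeded at 2000/well and grown 16–24 h.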
Sfp PPTase inh: qHTS Assay for Inhibitors of Bacillus subtilis Sfp phosphopantetheinyl transferase (PPTase); 4'-phosphopantetheinyl transferase ffp (Bacillus subtilis), Q9F4F7; Biochemical Sfp PPTase activity, qHTS; Potency, µM, inactives show max response, negative = inhibition, actives largely listed as inhibitors; 310,000 compounds, 3.5% hits; active means well fitted inhibition curve with a large enough effect; inconclusive means small, poorly fitted or top-dose-only effect, or another doubt; inactive means no such curve, though single readings can be large or run the other way;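 further: the enzyme is Sfp with the accession as filed and its product quenches rhodamine fluorescence; potency means the concentration at half of the fitted maximal effect; 0% = enzyme reaction without inhibitor and -100% = no enzyme wells; top concentration of the series not given in the record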
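Sfp 15 nM + cpd, 15 min RT; start w/ rhodamine-CoA 5 uM, BHQ-2-YbbR 12.5 uM (final); 50 mM Hepes pH 7.6, 10 mM MgCl2, 0.01% NP-40, 0.01% BSA; read 525/598 nm at 0 and 30 min.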
* hit, by the source's call; ? = inconclusive; . = not tested or not shown; [ ] = another dose, or the depositor's remark.

SMILES | ClpP mod | D2 ag | Menin-MLL FL inh | PINK1 modulator | gsp ag | gsp antag | Sfp PPTase inh
O=c1cc(-c2ccccc2)[nH]c2[nH]n(-c3ccccc3)c(=O)c12 | 2.1% | 7.6 | 0.7 | -0.6% | 0% | -3% | 3%
CCNc1sc(C(=O)OCC)c(N)c1C#N | -0.2% | -3.1 | 0.0 | 0.4% | -21% | 11% | 1%
COc1ccc(C(=O)COC(=O)c2cc3ccccc3oc2=O)c(OC)c1 | . | -1.6 | . | -4.2% | 20%[15.4 µM] | -1% | .
O=C1CCC(C(=O)OC(C(=O)Nc2cc(Cl)cc(Cl)c2)c2ccccc2)=NN1 (stereo unspecified) | 1.7% | -2.4 | . | 8.9% | -8% | 0% | .
COCCn1c(-c2ccc3ccccc3c2)nc2c1c(=O)[nH]c(=O)n2CC(C)C | . | -3.8 | 1.0 | 2.2% | -25%[15.4 µM] | ? | 8%
CCOc1ccccc1/C=N/NC(=O)c1cccc(Cl)c1 | 156% | -0.7 | 3.4 | 13% | -66%[inhibitor] | -5% | 2%
COc1ccc(CCNCC(O)Cn2ccc3ccccc32)cc1OC (stereo unspecified) | -2.6% | 0.3 | -1.3 | 3.5% | 0% | 6% | 6%
CC1CCN(S(=O)(=O)c2cccc(S(=O)(=O)N3CCOCC3)c2)CC1 | 0.4% | 0.7 | -0.9 | 1.3% | 4% | -16% | -3%
CC(=O)NC(CCS(C)(=O)=O)C(=O)Nc1cc(Cl)ccc1Cl (stereo unspecified) | -0.6% | -4.8 | -0.2 | 2.9% | -11% | 14% | 12%
COCCNC(=O)C(=O)NCC1OCCN1S(=O)(=O)c1ccc2c(c1)OCCO2 (stereo unspecified) | . | 5.3 | -1.6 | -0.2% | 14%[15.4 µM] | 13% | 2%
O=C(c1cnccn1)N1CCC[C@@]2(CCN(c3ncccn3)C2)C1 | . | . | 1.4 | -0.7% | . | . | 22%
CC12CCC(c3c(CO)nn(-c4ccccc4)c31)C2(C)C (stereo unspecified) | 1.1% | 0.2 | 14 | 16%[38.3 µM] | 35% | 10% | 13%
CCN(CC)CCN(C(=O)c1cc2ccccc2cc1OC)c1nc2ccc(F)cc2s1 | -23% | -3.6 | 0.5 | 14% | 0% | -9% | -26%
CC(C)(C)[C@@H]1C=C(C(=O)O)O[C@H](OCCCCO)C1 | -0.5% | -0.4 | . | -0.2% | . | 9% | .
CC12CCC(C(=O)Nc3cccc(Cl)c3)(C(Br)C1=O)C2(C)C (stereo unspecified) | -3.5% | -0.7 | 4.8 | 0.8% | 4% | -18% | 4%
CC1CC(C)CN(C(=O)COC(=O)CN2C(=O)c3ccccc3C2=O)C1 (stereo unspecified) | . | -0.6 | . | -1.6% | -9% | -7% | .
CNC(=S)N1N=C(c2ccc(OC)cc2)CC1c1ccccc1Cl (stereo unspecified) | 0.3% | -1.8 | -1.7 | -0.8% | -11%[15.4 µM] | -26% | -16%
CCCCOC(=O)Nc1ccc(S(=O)(=O)Nc2cc(C)nc(C)n2)cc1 | 0.1% | -7.5 | -0.4 | 2.2% | 1% | -12% | 8%
CC1CCCCN1S(=O)(=O)c1ccc(S(=O)(=O)N2CCN(C)CC2)cc1 (stereo unspecified) | . | -0.7 | 1.3 | 1.6% | -10%[15.4 µM] | 3% | 18%
COc1ccc(N2CCN(C3CCCN(Cc4ccc(F)cc4)C3)CC2)cc1 (stereo unspecified) | . | 0.9 | -4.4 | 1.7% | -18% | 7% | 4%
CN(C(=O)COC(=O)Cc1ccc(Br)cc1)c1c(N)n(Cc2ccccc2)c(=O)[nH]c1=O | -4.9% | -4.1 | . | -0.8% | 3% | . | .
O=C(/C=C/c1ccccc1Cl)NCc1ccco1 | -2.5% | 0.5 | -2.1 | -1.5%[38.3 µM] | -7% | -10% | 19%
COc1cccc(CCNc2ccc(N3C(=O)CC(C)C3=O)cc2[N+](=O)[O-])c1 (stereo unspecified) | . | -5.6 | ? | 3.4% | 2% | -9% | -7%
Cc1onc(-c2c(Cl)cccc2Cl)c1C(=O)O/N=C(\C#N)c1c(Cl)cccc1Cl | 0.5% | -6.1 | 7.8 | 0.2% | 8% | -7% | 9%
Cc1sc2nc(CSC(C)C(=O)Nc3ccc(C#N)cc3)[nH]c(=O)c2c1C (stereo unspecified) | -2.5% | -4.7 | . | -0.2% | -6%[15.4 µM] | -11% | .
Fc1ccc(CN2CCN(c3ncnc4scc(-c5ccc(F)cc5)c34)CC2)cc1 | 0.3% | 0.9 | -2.6 | 12% | 1% | -14% | -24%
Cc1cc2[nH]c3c4ccccc4nc(C)c3c2cc1C | -7.2% | 2.5 | . | -5.3% | -2% | 6% | .
CC(/C=C/c1ccccc1)=N\NC(=O)c1ccc(Br)cc1 | . | -20 | -6.2 | 1.2% | 14%[15.4 µM] | . | 1%
CCOc1cc(C2NC(=O)NC(C)=C2C(C)=O)cc(Cl)c1OCC(=O)O (stereo unspecified) | -0.5% | 0.5 | 4.6 | . | 0% | 0% | -21%
Cc1cc(=O)n2nc(N3CCCC(C(=O)NCCCN4CC(C)CC(C)C4)C3)sc2n1 (stereo unspecified) | -3.9% | -3.7 | . | -1.7% | 18% | 5% | 34%[activator]
COC(=O)N1CCC2(CC1)CN(c1ccc(-c3ccccc3)cc1)C2 | . | . | 4.6 | 2.2% | . | . | 1%
Cn1c(SCC(=O)NC2CCCC2)nnc1C(F)(F)F | -4.0% | -2.8 | . | -2.2% | 1% | 11% | .
Cc1c(O)ccc(NC(=O)/C=C/c2ccccc2)c1C | . | 1.4 | 0.6 | 2.6% | -13%[15.4 µM] | . | 7%
CC(C)CC(=O)Nc1ccc(Oc2ccc3c(c2)C(=O)NC3=O)cc1 | -15% | 9.4 | 3.1 | -0.8% | -32%[inhibitor] | 1% | -2%
Cc1ccc([C@H]2C[C@H](n3cc(COC(=O)c4ccccc4)nn3)[C@@H](O)CN2C(=O)c2cccs2)cc1 | -0.7% | -1.9 | . | -0.2% | -81%[inhibitor] | . | .
CCN(C(=O)c1cc2c(=O)n3cccc(C)c3nc2n1CCCOC)C1CCCCC1 | 4.3% | 1.7 | . | -1.4% | ? | 1% | -10%
COc1cc(/C=C2\SC(=O)N(Cc3ccc(Cl)cc3)C2=O)cc([N+](=O)[O-])c1O | . | -8.2 | -1.3 | 2.1% | 0%[15.4 µM] | ? | -19%
CC(C)(C)OC(=O)N1CCN(C(=O)c2ncn(Cc3ccccc3)c2C(=O)N2CCN(C(=O)OC(C)(C)C)CC2)CC1 | 0.8% | -0.5 | . | 0.7% | -14% | 4% | .
NS(=O)(=O)c1ccc(CCNC(=O)CSc2ccc(Cl)cc2)cc1 | 0.0% | -0.2 | 4.3 | -0.2% | -12% | 7% | 5%
Cc1cc(C)c(C(=O)C(C)OC(=O)Cn2cnc3c2c(=O)n(C)c(=O)n3C)cc1C (stereo unspecified) | . | 1.2 | . | -1.9% | 10%[15.4 µM] | 7% | .
CC1=NN(c2ccccc2)C(=O)/C1=C\c1sccc1C | . | -2.8 | 3.3 | 3.1% | 6%[15.4 µM] | 1% | -3%
CCC(Sc1nc(C)cc(C)n1)C(=O)Nc1cc(C)on1 (stereo unspecified) | . | 0.2 | -0.5 | 0.8% | 8% | 4% | 9%
COc1ccc(CCNC(=O)c2cc(-c3ccncc3)nc3c(Cl)cccc23)cc1OC | -0.3% | -2.6 | 1.4 | -0.4% | -2%[15.4 µM] | -20% | 2%
O=C(COc1nsnc1N1CCOCC1)N1CCOCC1 | -2.2% | -2.0 | -0.9 | 1.9% | -45%[inhibitor] | 11% | 16%
CCOc1ccccc1CN1CCNC(=O)C1CC(=O)N(C)Cc1cnccn1 (stereo unspecified) | -0.1% | 1.3 | -6.0 | 1.2% | -21%[15.4 µM] | 3% | 1%
CCN(CC)c1ccc(C(=O)N/N=C/c2ccc(N3CCOCC3)cc2)cc1 | . | 6.6 | 0.4 | 5.1% | -9%[15.4 µM] | 3% | 9%
Cc1ccccc1CSc1nnc(-c2ccccc2)c(=O)[nH]1 | . | -1.3 | -0.7 | -1.2% | ? | ? | 9%
CC1CC(C)(C)N2C(=O)C(=C(C#N)C#N)c3cccc1c32 (stereo unspecified) | -0.4% | 11 | 4.1 | -0.6% | 8%[15.4 µM] | 0% | 17%
Cc1cc(=O)oc2cc(OC(C)C(=O)NC3CCN(Cc4ccccc4)CC3)ccc12 (stereo unspecified) | 4.1% | -4.3 | 0.1 | -1.0% | -11% | -2% | 22%
O=C(CCN1C(=O)c2ccccc2C1=O)c1ccccc1 | 0.7% | -6.7 | . | -0.8% | 25% | . | .
C[C@@H]1CN([C@H](C)CO)C(=O)c2cc(Br)cnc2O[C@@H]1CN(C)Cc1ccc(-c2ccccc2)cc1 | 0.2% | -1.5 | . | 0.3% | ? | . | .
CCC(Oc1ccccc1)C(=O)OCC(=O)N(CC)c1c(N)n(Cc2ccccc2)c(=O)[nH]c1=O (stereo unspecified) | -3.4% | -5.5 | . | -0.9% | -7% | -3% | .
CC(C)CNC(=O)CN(c1cccc(Cl)c1)S(C)(=O)=O | . | -1.2 | -0.3 | 0.2% | -31%[inhibitor] | 5% | 13%
CCC(=O)Nc1nnc(SCC(=O)Nc2ccc(F)cc2)s1 | -1.2% | -0.2 | 4.6 | -2.7% | ? | -1% | 1%

Screening results deposited in PubChem by National Center for Advancing Translational Sciences (NCATS).
